Screening results: PubChem, Fisher Drug Discovery Resource Center
NPYLR7 ag = activates Aedes aegypti NPYLR7 receptor; activation, % at 10 µM; hit rate 0.15% among 270,000; HEK293T NPYLR7/Galpha15, GCaMP6s calcium fluorescence; AID 1259423; in the data active means activation above about 40%;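 further: 0% = vehicle and 100% = reference agonist at the receptor; some compounds past the cut are filed as inactive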
NPYLR7 ag max-min = recorded beside NPYLR7 ag, whose call it bears; activation, %; measured here: Max-Min RFU normalised activation; some inactives read as strong as hits;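 span of the calcium signal over five minutes; 0% = vehicle and 100% = native peptide agonist; compound fluorescence can raise it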
Starred values were filed as active, the others as inactive.

The first three compounds, to show the layout:
Every second line gives: NPYLR7 ag, NPYLR7 ag max-min
CCOC(=O)C1(Cc2ccccc2Cl)CCN(C(=O)C#Cc2ccccc2)CC1
 : 8, 5
O=C(NC1CCC(OC(=O)C2Cc3ccccc3O2)CC1)C1Cc2ccccc2O1 (centres undefined)
 : -1, -5
O=C(O)CCc1ncc(-c2c(F)cccc2F)o1
 : 1, -2

This part in full (from the top)
Every second line gives: NPYLR7 ag, NPYLR7 ag max-min
CCOC(=O)C1(Cc2ccccc2Cl)CCN(C(=O)C#Cc2ccccc2)CC1
 : 8, 5
O=C(NC1CCC(OC(=O)C2Cc3ccccc3O2)CC1)C1Cc2ccccc2O1 (centres undefined)
 : -1, -5
O=C(O)CCc1ncc(-c2c(F)cccc2F)o1
 : 1, -2
S=C(NCCc1ccccc1)N1CCn2cccc2C1c1ccncc1 (centres undefined)
 : 2, 0
O=C(Nc1ccc(F)c(F)c1)c1ccc(Br)s1
 : 2, 1
COc1cc2ncnc(Nc3ccc(Oc4ccccc4)cc3)c2cc1OC
 : -20, -25
COc1ccccc1CN(C)C(=O)Nc1ccccc1F
 : -2, -3
CC(C)(C)n1cc(C#N)cc1NC(=O)C1CC(c2cccc(F)c2)=NO1 (centres undefined)
 : -5, -5
O=[N+]([O-])c1ccccc1C1c2cccn2CCCN1Cc1ccc(F)c(Cl)c1 (centres undefined)
 : 4, 17
Cc1cccc(CSc2nc(Oc3cccc(Cl)c3)cc(C(C)C)n2)c1
 : 4, 12
CC(C)COC(=NCCCN(C)C)NC(=O)c1ccc(F)cc1
 : -6, 2
CC(C)c1ccccc1OC1CC2CCC(C1)N2C(=O)c1ccc(CSc2nnnn2C)cc1 (centres undefined)
 : 4, -5
COc1ccccc1OCc1cc(C(=O)N2CCC2c2ccccc2)n[nH]1 (centres undefined)
 : 6, 10
Oc1cc2c(cc1CN1CCCC1c1cccs1)OCO2 (centres undefined)
 : 1, -2
CCc1ccc(-c2nnn(CC(=O)NC(=O)NC(C)(C)C)n2)cc1
 : 2, 1
Cc1ccc(CNC(=O)CSc2nc(=O)n3ccccc3n2)cc1
 : 0, 1
CCCCN(C)c1ccc(C(=O)N2CCc3sccc3C2)cc1
 : 4, 2
COCCNc1cc(C)nc2c3c(C)cc(C)nc3nn12
 : -2, 19
COc1ccccc1-c1nc(COC(=O)c2cccc(O)c2)cs1
 : 4, 0
CC(C)(C)c1ccc(C2(C(=O)NC3CCS(=O)(=O)C3)CCCC2)cc1 (centres undefined)
 : 12, 6

Rewritten as a markdown table: two of the compounds above
| Structure | NPYLR7 ag | NPYLR7 ag max-min |
| --- | --- | --- |
| CC(C)c1ccccc1OC1CC2CCC(C1)N2C(=O)c1ccc(CSc2nnnn2C)cc1 (centres undefined) | 4 | -5 |
| O=C(NC1CCC(OC(=O)C2Cc3ccccc3O2)CC1)C1Cc2ccccc2O1 (centres undefined) | -1 | -5 |

(listing goes on)
Every second line gives: NPYLR7 ag, NPYLR7 ag max-min
Cc1ccc(OCCSc2nc3ccccc3n2CC(N)=O)cc1
 : 1, 2
COc1ccc(C2c3cccn3-c3ccccc3N2C(=O)CN(C(=O)Nc2ccc(C#N)cc2)C2CC2)cc1 (centres undefined)
 : -5, -4
CSCC1CCN(C2CCN(c3c(F)cccc3F)C2=O)C1 (centres undefined)
 : 2, 2
O=S(=O)(c1ccc(Cl)cc1C(F)(F)F)N1CCCC1c1nc2ccccc2[nH]1 (centres undefined)
 : 1, 0
CC(=O)Oc1c(-c2ccc(N)cc2)c(-c2ccccc2F)nn1-c1ccc(F)cc1
 : 34, 36
CCN(CC)Cc1ccc(C(=O)Nc2ccc(-c3noc(=O)[nH]3)cc2)cc1
 : -2, 39
c1ccc(Cc2nc(C34CC5CC(C3)CC(n3cncn3)(C5)C4)n[nH]2)cc1
 : -6, -7
C=CCc1c(C)nc(SC(C)C)[nH]c1=O
 : 6, 4
O=C(NCCc1ccc(Br)s1)C1CCC1
 : -2, -3
CN1[C@H](C(=O)O)C[C@H](C(=O)NC2CCOCC2)[C@@H]1c1cccc(Cl)c1
 : -1, -2
COc1ccc(-c2nc3cc(C)ccn3c2NC(=O)C2CCCC2)cc1OC
 : -5, 1
CCCc1nc(C)sc1C(=O)N1CC2C(=O)NC(=O)NC2(CCC)C1 (centres undefined)
 : -3, -6
CCc1ccccc1NC(=O)CCCn1nc(-c2ccco2)ccc1=O
 : 6, 6
CCOC(=O)[C@H]1C[C@]2(CCCCNC2=O)N(C(=O)Cc2ccc(F)cc2)[C@H]1c1ccco1
 : 0, 8
COC(=O)c1ccc(CN2C(=O)C(C)ON=C2c2cccnc2)o1 (centres undefined)
 : 14, 7
CCc1cccc2c(C(CC(=O)NCCc3ccccn3)c3cccc(OC)c3)c[nH]c12 (centres undefined)
 : 15, 16
Fc1ccc(C2=CCN(c3nc(-c4ccncc4)nc4c3CNC4)CC2)cc1
 : 23, 6
CCc1ccc2occ(CC(=O)NCc3cccnc3N(C)C)c2c1
 : 20, 16
CC(C)(C)OC(=O)NCCCCCC(=O)NCCSC1Sc2ccccc2NC1=O (centres undefined)
 : 3, -1
SCc1nc2c3ccccc3ncn2n1
 : -3, 6
CC(C)N(Cc1cccc(OS(=O)(=O)c2cccc(C(F)(F)F)c2)c1)C(=O)c1ccc(Br)cc1
 : -7, -7
Cc1nc(SCc2ccc(C(=O)O)cc2)nc(N(C)C)c1C
 : 11, 23
O=C(Nc1ccccc1)c1cnn(-c2ccccc2)c1C(F)(F)F
 : 7, 2
CCCOc1ccccc1NC(=O)c1ccc(C#N)cc1
 : 7, 2
C=CCn1c(SCc2ccc(C(=O)Nc3ccc(C)c(C)c3)cc2)nnc1-c1ccc([N+](=O)[O-])cc1
 : -5, 5
Cc1n[nH]c(C)c1C(NC(=O)CSC(C)C)C(=O)O (centres undefined)
 : 5, 2
O=C(c1cn(Cc2ccccc2F)nn1)N1CCCC(C(=O)N2CCOCC2)C1 (centres undefined)
 : 12, 7
COc1ccc(N2C(=S)N(c3ccc(OC)cc3)C3CS(=O)(=O)CC32)cc1 (centres undefined)
 : -6, -7
Cc1nc2c(C)cccn2c(=O)c1NC(=O)COc1ccc2ccccc2c1
 : 3, 0
CC(C)(C)NCCCNC(C)(C)C
 : 5, 3
COc1cc2c(cc1CN1CCCC1c1nc(C(C)C)no1)OCCCO2 (centres undefined)
 : -1, -8
Cc1cccc(-n2c(SC(C)C(N)=O)nc3ccccc3c2=O)n1 (centres undefined)
 : 10, 10
Cn1c(C(C#N)=C(O)COc2ccc(Cl)cc2)nc2ccccc21
 : 0, -2
Cn1cccc1C(=O)NNC(=O)c1cccc(Br)c1
 : 2, 6
CCn1cc(C(=O)Nc2nnc(C(C)C)s2)c2nn(-c3ccccc3)c(=O)c-2c1
 : 2, 1
COc1ccc2c(c1)CCc1c(-c3ccc(C(=O)NCc4c(OC)cc(OC)cc4OC)cc3)n[nH]c1-2
 : 3, -3
COc1cccc(-c2nc(CN3CCCN(c4ncccn4)CC3)c(C)o2)c1OC
 : 15, 7
Cc1ccc(NC(=O)CSc2nc(=O)n(Cc3cccnc3)c3c2CCCC3)cc1F
 : 0, -3
CCCc1nc(CN(CC)C(=O)c2csnn2)no1
 : 8, 4
O=C(NCCN1CCOCC1)C1CCCN(Cc2c(-c3ccc4c(c3)OCO4)nc3ncccn23)C1 (centres undefined)
 : -1, 14
CCCc1cc(=O)n(CC(=O)Nc2ccc(C(N)=O)cc2)c(-n2nc(C)cc2C)n1
 : -6, -3
O=C(c1ccc(NS(=O)(=O)c2ccc(F)cc2)cc1)N1CCN(c2ccc(F)cc2)CC1
 : 0, -4
COCC(=O)N1CCCN(C(=O)c2ccc(F)c(OC)c2F)CC1
 : 13, 5
COCCN(CC(F)F)C(=O)NC1CCc2ccccc2C1 (centres undefined)
 : 14, 0
CC1(C)C2CN(C(=O)NCCNc3nccc(C(F)(F)F)n3)CC21 (centres undefined)
 : -2, 21
COc1cc(/C=C2/N=C3CCCCCN3C2=O)ccc1OCc1csc(C)n1
 : 0, -2
COCCN(CC(=O)Nc1nc(CC(=O)NC(C)CCc2ccccc2)cs1)C(=O)c1ccco1 (centres undefined)
 : 15, 17
COc1cc(Cl)c(S(=O)(=O)NC2CC(C)(C)NC(C)(C)C2)cc1Cl
 : -2, 2
Cc1cc2ccccc2n1CCC(=O)NCCS(C)(=O)=O
 : 13, 9
CCn1c(SCC(=O)NCc2ccc(OC)cc2)nc2c(-c3ccccc3)c[nH]c2c1=O
 : 0, -3
COc1cc(Cl)c(S(=O)(=O)NCc2ccc3c(c2)OCO3)cc1Cl
 : 0, 2
COc1ccccc1/C=C/CN1CCCC(CCC(=O)Nc2ccccc2F)C1 (centres undefined)
 : 14, 11
Cn1nnc2c(=O)n(Cc3cccc(Cl)c3)cnc21
 : 1, 3
CSc1ccc(C(=O)N(Cc2ccccn2)CC(C)C)cc1
 : -6, -7
CN(C)c1nc(Nc2ccc(Cl)cc2)c2cnn(C)c2n1
 : 2, -1
CC1CCCCN1CCCNC(=O)CC(c1cccc(F)c1)c1cn(Cc2ccccc2)c2ccc([N+](=O)[O-])cc12 (centres undefined)
 : 0, 7
CCc1nc2c(OCc3ccc(F)c(F)c3)cccn2c1N(C)C(=O)c1cccs1
 : 7, -5
O=C(c1cn(Cc2ccccc2)cc2c(=O)n(-c3ccccc3)nc1-2)N1CCCc2ccccc21
 : 4, 3
O=P1(Nc2ccc3ccccc3c2)C=C(c2ccccc2)OC(c2ccccc2)=C1
 : -3, -4
O=[N+]([O-])c1cc(S(=O)(=O)N2CCOCC2)ccc1Sc1ccc(Br)cc1
 : 9, 4

Part of the list above in order of molar mass, low to high.
Every second line gives: NPYLR7 ag, NPYLR7 ag max-min
Cc1cc2ccccc2n1CCC(=O)NCCS(C)(=O)=O
 : 13, 9
COc1cc(Cl)c(S(=O)(=O)NC2CC(C)(C)NC(C)(C)C2)cc1Cl
 : -2, 2
O=[N+]([O-])c1cc(S(=O)(=O)N2CCOCC2)ccc1Sc1ccc(Br)cc1
 : 9, 4

(more compounds)
Every second line gives: NPYLR7 ag, NPYLR7 ag max-min
COc1ccc(C=NS(=O)(=O)CCc2ccccc2)c(OC)c1
 : -1, -4
Cc1cc(C)c(C#N)c(NCc2ccccc2CN2CCCC2)n1
 : 11, 12
Cc1ccccc1CN(C)C(=O)CSc1nnc(-c2ccoc2C)n1C
 : 11, 3
CC(C)CCNC(=O)c1cn(CC(C)C)cc(C(=O)N2CCN(C(C)C)CC2)c1=O
 : 2, 1
COc1cccc(-n2cnnc2SC(C)C(=O)N(C(C)C)C(C)C)c1 (centres undefined)
 : -7, -7
Cc1cc(=O)[nH]c(-c2cccc(NC(=O)CCN3CCN(c4ccccc4)CC3)c2)n1
 : -1, -3
O=C(/C=C/c1ccccc1)NCC1=CCCN(C2C=CCCC2)C1 (centres undefined)
 : -6, -13
Cc1ccc(Nc2nc(N)nc(Cn3nnc(-c4ccc(C)cc4)n3)n2)cc1
 : -1, 1
COc1cccc(COC2CCCN(C(=O)Nc3ccc(C)cc3)C2)c1 (centres undefined)
 : -2, 2
CCN(Cc1ccccc1NCc1cc(C#N)ccc1F)C(C)=O
 : 6, 5
CCSc1nc(NC(C)C)c2cnn(CCNC(=O)c3cccs3)c2n1
 : -1, -2
Cc1cc(N2C(=O)c3oc4ccc(F)cc4c(=O)c3C2c2cccc(Cl)c2)no1 (centres undefined)
 : 3, 0
COc1ccc(CCN(Cc2ccc(C)s2)C(=O)CN(C(=O)c2cccc([N+](=O)[O-])c2)C2CCCCC2)cc1OC
 : 7, 6
Cc1ccn2c(=O)c(NC(=O)c3ccc(-c4ccccc4)cc3)c(C)nc2c1
 : 3, 2
Cc1ccc2c(c1)CCN1C(=O)CN(C(=S)Nc3c(F)cc(F)cc3F)CC21 (centres undefined)
 : 24, 37
Cc1csc(NC(=O)CSc2ccc3nnc(-c4ccccc4)n3n2)n1
 : 3, 25
CN1CCNC(=O)C12CCN(Cc1c[nH]c3ccccc13)CC2
 : 4, 6
Cc1nnc(-c2cc3ccccc3n2CC(=O)NC2CCCC2)o1
 : -5, -1
Cc1c(C)n2c3c(=O)n(Cc4ccccc4)c(=O)n(C)c3nc2n1CCCN(C)C
 : 1, 2
Cc1ccc(O)c(C(=O)N(C)Cc2ccccc2C(F)(F)F)c1
 : 1, 0
CCCNC(=O)CN(C)Cc1nc(-c2cccc(C(F)(F)F)c2)no1
 : -1, -3
Cc1occc1-c1nnc(SCC(=O)c2cc(C)n(C)c2C)n1C
 : 0, 4
NC(=O)[C@@H]1CCCN1Cc1nc(Cc2ccccc2Cl)no1
 : 1, -4
COc1cccc(NC(=O)N2CCC3(CC2)SCCN3C(=O)c2ccc(C(F)(F)F)cc2)c1
 : 27, 23
O=C(O)Cn1ccnc1-c1ccccc1
 : -7, -15
Cc1ccc(CN2CCNC(=O)CC2c2cccc(F)c2)s1 (centres undefined)
 : 14, 3
O=C(CN1CSCC1=O)N1CCN(S(=O)(=O)c2cccs2)CC1
 : 1, 13
COC(=O)c1sc2ccccc2c1CNS(=O)(=O)N(C)C
 : 9, 8
O=C(Nc1ccccc1)c1nn(-c2ccc(Cl)c(C(F)(F)F)c2)cc1O
 : -2, -2
CN(C(=O)CCn1c(=O)oc2cc(Cl)ccc21)c1ccccc1
 : 4, -1
Cn1c(=NC(=O)c2ccc3ccccc3n2)sc2ccccc21
 : 2, 1
C[C@H](NC(=O)c1cccnc1Nc1cc(Cl)cc(Cl)c1)[C@H](O)c1ccccc1
 : -7, -9
Cc1cc2c(cc1C)OC(C(=O)N1CCOCC1CC(O)c1cccs1)C2 (centres undefined)
 : 0, -2
COc1ccc(/C=C/C(=O)N2CCc3c(cnc(C)c3CNC(=O)CN3CCCCC3)C2)cc1
 : 9, 8
CCCNC(=O)CCc1nc2ccccc2n(CC(=O)Nc2c(C)cccc2C)c1=O
 : 5, 3
N#CC1(NC(=O)COc2ccc(-c3nnco3)cc2)CCCCC1
 : 6, 5
O=c1cccnn1CCNS(=O)(=O)c1cc(C(F)(F)F)cc(C(F)(F)F)c1
 : 2, 3
CC(NCCn1cnc2ccccc21)c1ccccc1Cl (centres undefined)
 : 10, 7
CCN1CCC(Cc2nn3c(C4CCCC4)nnc3s2)CC1
 : 2, -1
CN1CCN(C(=O)CCNC(=O)C(C)(C)C)c2nc3ccccc3nc21
 : -18, -18

Only part of the results is shown; rates above refer to the full screens.
